Calb FLC: affects C. albicans growth with fluconazole. growth inhibition, % (concentration not given with the values). hit rate 0.57% among 300,000. C. albicans CaCi-2 (fluconazole-resistant clinical isolate) + fluconazole, Alamar Blue growth, 48 h;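 active = most replicates above 75%; inconclusive = exactly half above 75%; inactive = most below 75%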;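 also: all wells also contain fluconazole at 8 µg/ml as a sub-toxic cotreatment; 0% = median of DMSO wells and 100% = median of geldanamycin control wells; wells of about 8 µL received 7.5 nL stock; the first replicate is given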
A1 inh: inhibitors of the anti-apoptotic protein A1, read as caspase activation; MEF A1-2A-BIM cells, Caspase-Glo 3/7 luminescence, 3 h; percent of clofoctol response, vehicle zero; caspase activation, % (no concentration beside the values); hit rate 0.066% among 330,000; AID 2462;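 active = over half of replicate activation scores above 10%, or exactly half above 10 with the replicate mean above 10; inconclusive = replicate mean below 10 yet half the replicates above 10; inactive = over half of replicates below 10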;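 also: wells of about 30 µL received 50 nL stock; many hits fall short of the cut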
ALR H2O2 inh: inhibitors of human sulfhydryl oxidase ALR. purified ALR, DTT oxidation, H2O2 HRP-luminol luminescence. inhibition, % (test concentration not listed). hit rate 3.8% among 290,000. AID 485317;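 active = mean and each replicate at 75% or more; inconclusive = only one of the two met; inactive = neither met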;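 also: stock transfer was 7.5 nL into about 7.5 µL; 0% = neutral wells and 100% = wells with inactivated enzyme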
LANA-H2B inh: blocks KSHV LANA binding to histone H2A/H2B; inhibition, % (concentration not given with the values); AID 2629; cell-free LANA-H2A/H2B peptide, fluorescence polarization; Q9QR71; hit rate 0.6% among 320,000; in the data active = inhibition mostly above about 10%, no sharp cut-off; inactive = mostly below about 6.7%;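 also: stock transfer was 7.5 nL into about 10 µL; 0% = median of vehicle wells and 100% = median of positive control wells; one replicate is shown; the record names a cut of 25% in any replicate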
Target sequence (Q9QR71 whole entry, looked up): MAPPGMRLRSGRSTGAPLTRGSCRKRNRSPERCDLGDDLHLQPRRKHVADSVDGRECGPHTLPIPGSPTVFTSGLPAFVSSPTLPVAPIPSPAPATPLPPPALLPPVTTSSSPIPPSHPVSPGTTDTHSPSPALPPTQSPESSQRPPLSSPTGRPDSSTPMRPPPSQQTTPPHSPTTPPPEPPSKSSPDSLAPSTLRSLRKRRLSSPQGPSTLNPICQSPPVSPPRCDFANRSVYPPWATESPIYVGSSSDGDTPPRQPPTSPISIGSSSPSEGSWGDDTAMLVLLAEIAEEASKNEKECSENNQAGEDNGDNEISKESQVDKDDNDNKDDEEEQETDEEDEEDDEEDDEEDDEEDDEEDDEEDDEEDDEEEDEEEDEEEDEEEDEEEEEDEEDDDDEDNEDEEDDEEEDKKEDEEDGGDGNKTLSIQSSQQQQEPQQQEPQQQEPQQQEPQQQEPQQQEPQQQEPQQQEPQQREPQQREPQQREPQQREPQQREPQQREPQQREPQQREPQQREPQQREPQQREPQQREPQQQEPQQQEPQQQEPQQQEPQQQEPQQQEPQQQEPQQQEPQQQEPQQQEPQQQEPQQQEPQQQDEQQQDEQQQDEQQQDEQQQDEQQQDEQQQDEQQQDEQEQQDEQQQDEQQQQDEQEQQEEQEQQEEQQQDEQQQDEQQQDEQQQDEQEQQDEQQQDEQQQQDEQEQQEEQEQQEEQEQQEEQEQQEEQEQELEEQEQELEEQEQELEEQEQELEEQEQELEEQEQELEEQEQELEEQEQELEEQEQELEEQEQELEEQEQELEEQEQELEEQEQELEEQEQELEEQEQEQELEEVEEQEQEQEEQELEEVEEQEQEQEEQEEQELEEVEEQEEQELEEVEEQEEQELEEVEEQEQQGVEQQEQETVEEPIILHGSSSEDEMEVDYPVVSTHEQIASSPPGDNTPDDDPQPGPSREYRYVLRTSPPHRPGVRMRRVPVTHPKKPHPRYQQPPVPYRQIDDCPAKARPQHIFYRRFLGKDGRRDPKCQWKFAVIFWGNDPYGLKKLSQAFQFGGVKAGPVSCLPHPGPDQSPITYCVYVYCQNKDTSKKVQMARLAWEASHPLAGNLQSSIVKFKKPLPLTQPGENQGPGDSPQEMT
Beta apoptosis: blocks beta cell apoptosis | INS-1E cytokine-induced death, ATP luminescence, 48 h; percent of positive-control rescue, neutral wells zero | protection from apoptosis, % (no concentration beside the values) | hit rate 0.8% among 300,000;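 active = all replicates at 75% or more, or half of them and the mean; inconclusive = half reach 75% but not the mean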;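 also: 0% = cytokine-treated negative control wells and 100% = positive control rescue; higher means more ATP so stronger rescue from cytokine killing; wells of about 40 µL received 100 nL stock; the first replicate is given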
Ecoli rRNA inh: inhibits bacterial ribosomal RNA function over humanized ribosomes; E. coli WT GFP vs humanized-ribosome RFP mutants, fluorescence, 24 h; active compounds read low; DMSO median 0, no signal -100; GFP signal change (wild-type ribosome), % (concentration not given with the values); hit rate 1.6% among 350,000; AID 720706;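 active = significant combined selectivity score with lowered wild-type GFP, culture density cut under 30%, mutant RFP and density less affected; inactive = any of these conditions unmet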; also: one replicate is shown; some compounds called inactive have numbers as strong as hits
Beta2AR agonist: activates human beta-2 adrenergic receptor causing internalization; P07550; Am2.2-beta2AR cells, FAP receptor internalization, flow cytometry; reference of the scale not given here; response, % (test concentration not listed); hit rate 0.43% among 340,000; AID 504454;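 active = response above a set limit, near 3 SD of response in nonfluorescent compounds, cut at about 42% in these data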;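 also: stock transfer was 100 nL into about 11 µL; a reference agonist was the positive control; negative values mostly stem from fluorescent compounds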
T cruzi repl: T. cruzi replication inhibition; hit rate 1.4% among 300,000; AID 1885; T. cruzi beta-gal in NIH3T3, luminescence, 90 h; inhibition, % (concentration not given with the values);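 active = mean inhibition across valid replicates above about 55%, limit read from the data; inconclusive = mean below that limit but half or more replicates reach it; inactive = mean below it, under half of replicates reach it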;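 also: signal also drops with host cell toxicity which is not excluded here; 0% = plate median of DMSO wells and 100% = zero luminescence signal; higher percent means less beta-gal luminescence so fewer parasites; stock transfer was 50 nL into about 50 µL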
Ecoli rRNA inh OD600: also measured in Ecoli rRNA inh; calls as there; OD600 change, %; measured here: OD600 growth;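 optical density of the mix in the first replicate; 0 = DMSO median and -100 = no signal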
Ecoli rRNA inh RFP: also measured in Ecoli rRNA inh; calls as there; RFP signal change, %; measured here: RFP humanized mutant strains;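 first replicate; 0 = DMSO median and -100 = no signal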
An asterisk follows results filed as active; ? = inconclusive; . = not tested or not shown.

structure,ALR H2O2 inh,LANA-H2B inh,Ecoli rRNA inh,Beta2AR agonist,Ecoli rRNA inh OD600,Ecoli rRNA inh RFP,Calb FLC,T cruzi repl,Beta apoptosis,A1 inh
Cc1cc(C)cc(NC(=O)c2c(C)nc3ccccn23)c1,-1,0.1,-22,8,-20,-6.2,-1,-2,-5,0.6
COc1ccc(Cl)cc1CN1C(=O)NC2(CCCCCC2)C1=O,2,-3.9,-1,-12,6,-1.5,7,20,-3,-0.3
CCNC(=S)N(Cc1cc2cc(C)ccc2[nH]c1=O)C1CCCC1,-1,-1.1,.,-8,.,.,11,0,1,0.0
CCN(CC)CCCNC(=O)c1csc(Nc2cccc3ccccc23)n1,.,-0.3,-3,-1,-2,-3.3,-1,-7,5,-0.1
CC(C1CC1)N(C(=O)c1ccccc1O)c1ccccc1 (centres undefined),1,-4.2,.,0,.,.,-2,0,-3,-0.4
Cc1ccc(CN2CCN(CC(=O)NCc3ccc(Cl)cc3)C2=O)cc1,2,-1.4,.,-4,.,.,7,7,3,-0.4
O=C(O)c1ccc(CSCc2ccco2)cc1,97*,-0.3,-3,8,0,-2.8,-5,17,-5,-3.1
CN1CCN(c2ccccc2NC(=O)c2ccc(-c3ccc(Cl)cc3Cl)o2)CC1,-54,-1.9,.,-15,.,.,14,55*,18,0.3
CCOc1ccc(C(=O)NCC(=O)OCc2c(F)cccc2Cl)cc1,-14,0.7,.,2,.,.,5,-7,0,-1.2
Cc1ccccc1C(=O)Nc1ccnn1C1CCN(Cc2c(C)n(C)c3ccccc23)CC1,.,.,-9,23,-2,-3.7,-37,37,.,.
O=C(CCC1CCCC1)Nc1ccc(Br)cn1,-1,-0.6,.,-11,.,.,-2,-4,-7,0.0
CC1CCCC(NC(=O)COC(=O)CCC2CCCC2)C1C (centres undefined),-7,0.0,.,2,.,.,-3,-4,3,-1.0
NS(=O)(=O)Oc1ccccc1,-2,-2.5,26,10,23,-1.5,12,-10,0,-0.1
Cc1ccc(CS(=O)(=O)Cc2ccc(C(=O)NC3CCCCCC3)o2)cc1,46,11,11,1,6,-0.9,0,0,5,-1.5
COc1cc(C2/C(=C(\O)c3ccc4c(c3)CC(C)O4)C(=O)C(=O)N2CC2CCCO2)cc(OC)c1OC (centres undefined),.,.,9,7,16,2.0,4,-2,.,.
Cc1ccsc1C=Nc1c(C)n(C)n(-c2ccccc2)c1=O,25,-3.6,.,-2,.,.,-11,-20,2,0.2
CN1CCN(c2ccc(C(F)(F)F)cc2NC(=O)c2ccco2)CC1,-1,-6.8,-4,-16,2,0.6,-12,11,-9,0.8
CN(c1ccccc1C(=O)Nc1cccc([N+](=O)[O-])c1)S(C)(=O)=O,29,1.7,4,2,5,3.1,-4,-10,-3,0.3
CCOC(=O)c1c(N2C(=O)Nc3ccccc3N2O)n[nH]c1-c1cccc(OC)c1,.,0.7,0,9,-4,1.4,0,-7,-4,0.5
COc1ccc(NC(=O)CN2CCCCC2)cc1S(=O)(=O)N1CCCCC1,-1,3.0,8,0,12,0.0,.,.,0,-1.1
CCOC(=O)c1c(/N=C/c2ccc(OC)cc2O)sc2c1CCN(C)C2,-8,7.1,18,-1,-5,1.9,-2,21,-3,0.6
Cc1ccc(NC(=S)Nc2ccc(F)cc2)c(C)c1,-1,-4.1,-9,2,8,-2.2,-15,-18,-2,1.4
CN(C)C(CNC(=O)CCCc1c[nH]c2ccccc12)c1ccco1 (centres undefined),41,-0.1,.,3,.,.,-15,23,2,1.0
CCOP(C)(=O)C1(C(=O)OCc2ccccc2)CC1 (centres undefined),-19,1.3,.,3,.,.,2,-12,-3,-0.4
c1csc(CNc2ccc3c(c2)OCCO3)c1,65,4.4,2,3,0,1.5,.,.,2,0.9
CC(C)(C)NC(=S)NCc1ccco1,-12,0.4,-1,19,-11,9.6,-1,-6,.,1.1
Cc1ccc(NS(=O)(=O)c2cccc(C(=O)NNC(=O)c3cccn3C)c2)c(C)c1,1,-10.0,-23,0,-32,6.3,4,14,-6,-0.7
COc1ccc(NC(=O)CSc2nnc(-c3ccncc3)o2)c(OC)c1,-34,-0.4,-6,-2,-6,-0.7,-2,3,0,0.0
COc1ccc(-c2cc(=O)oc3c(C)c(OC(C)C(=O)Nc4ccc(CN5CCOCC5)cc4)ccc23)cc1 (centres undefined),-4,-3.8,-3,-1,-4,13,-2,33,2,-0.9
N#CCCn1nc(-c2ccc(Br)cc2)cc1Nc1ccccc1NC(=O)C(F)(F)F,8,-2.9,-10,1,-11,12,1,-1,-4,-0.5
O=C(O)CC[C@@H](C(=O)O)N1C(=O)c2ccccc2C1=O,0,3.8,.,4,.,.,.,8,-3,0.0
O=C(/C=C/c1ccco1)OCC(=O)c1cccc([N+](=O)[O-])c1,.,-2.7,-4,-1,0,-2.6,-1,-6,4,0.2
O=C(OCc1cc2ccccc2[nH]c1=O)C1CCCCC1,-27,-0.2,.,-2,.,.,-7,7,-2,-2.3
CCOc1cc(C=C(C(=O)OC)C(=O)OC)ccc1OCc1ccc([N+](=O)[O-])cc1,10,4.9,.,6,.,.,.,.,56,0.7
Cc1ccc(CN2C3CCCC2CC(NC(=O)c2ccc(C)cc2)C3)cc1 (centres undefined),-3,0.5,24,0,20,1.0,-7,8,-1,0.5
CN1C(=O)C(=O)/C(=C(/O)c2ccccc2)C1c1ccc(Br)cc1 (centres undefined),2,3.4,-16,0,-24,0.8,4,-5,-7,0.1
Cc1cccc(OCC(=O)Nc2cccc(-c3nnc(-c4ccccc4)o3)c2)c1C,-2,0.2,.,6,.,.,22,-1,1,1.2
O=C(c1ccco1)N(Cc1ccc([N+](=O)[O-])cc1)c1ccc(Cl)cc1,-5,1.1,.,-1,.,.,26,9,.,1.1
Cc1ccc(CNC(=O)C2CCCN(S(=O)(=O)c3cccc4nonc34)C2)cc1 (centres undefined),9,-2.4,5,-8,8,-2.8,7,-7,1,0.0
COc1ccc(/C=N/NC(=O)c2cccc(NC(=O)c3ccccc3Cl)c2)cc1OC,-3,2.9,-14,2,-5,0.4,7,-20,3,-0.2
CC1CCN(C(=S)NC(=O)c2cccc([N+](=O)[O-])c2)CC1,-3,4.6,-7,4,-26,-0.9,-11,6,-8,-0.4
CC1CN(S(=O)(=O)c2ccc(C(=O)Nc3ccc(S(=O)(=O)N4CCOCC4)cc3)cc2)CC(C)O1 (centres undefined),-5,-20,16,-2,13,1.5,-14,-8,4,0.2
COc1ccc(SC[C@H](Cc2ccccc2)N2CC[C@@H](C(C)(C)C)CCC2=O)cc1,99*,-5.1,-4,17,-1,-14,.,.,-4,1.9
COc1ccccc1NS(=O)(=O)NC(=O)c1c(C)[nH]c2ccccc12,.,0.7,8,0,9,-1.6,8,2,-1,-0.2
COc1ccc(Nc2nc3cc(C)ccc3cc2C#N)c(OC)c1,-20,-1.3,18,8,19,1.5,1,-45,1,1.9
COc1ccc(C=NNc2ccc([N+](=O)[O-])cc2S(=O)(=O)Nc2ccccc2C(=O)O)cc1OC,55,-1.8,-23*,7,-13*,1.7*,.,.,4,1.2
CN(C)c1ccc(C(=O)N=c2sccn2C)cc1[N+](=O)[O-],-4,1.0,11,-3,13,1.4,-4,17,-5,-5.5
Cc1ccc(/C=N/NC(=O)c2cccc(S(=O)(=O)Nc3ccccc3Cl)c2)o1,15,5.0,1,0,4,0.7,3,-5,0,0.9
C/[N+]([O-])=C1\Cc2ccccc2C1=O,-29,-0.1,.,-1,.,.,-9,0,1,0.1
COc1ccccc1-c1nnc(SC)n1C,-10,-5.3,7,4,4,-2.1,-7,3,-5,-0.1
O=C1c2cccc3cccc(c23)C(=O)N1CC1CCN(S(=O)(=O)c2ccc(F)cc2)CC1,-8,0.2,.,-12,.,.,-5,23,2,0.5
NC(=O)c1ccccc1NS(=O)(=O)c1ccc(S(=O)(=O)N2CCCC2)cc1,-5,4.0,20,1,10,-0.5,.,.,-1,?
COc1cccc(NC(=O)CN2C(=O)CSc3nc(C)cc(C)c32)c1,-17,-0.9,0,2,-4,-4.4,2,0,3,0.9
Cc1ccc(N2CC(C(=O)Nc3ccccc3C(=O)NC3CCCCC3)CC2=O)cc1 (centres undefined),1,-1.8,.,-2,.,.,-5,-11,0,1.5
O=C(c1ccco1)N1CCN(C(c2ccc(Cl)cc2)c2nnnn2CC2CCCO2)CC1 (centres undefined),1,9.0,.,-10,.,.,-11,-9,-5,-0.2
Cc1cccn2c(=O)c(C=O)c(N3CCSCC3)nc12,-2,-5.3,5,-6,-9,0.9,0,10,.,-0.1

(continued)
structure,ALR H2O2 inh,LANA-H2B inh,Ecoli rRNA inh,Beta2AR agonist,Ecoli rRNA inh OD600,Ecoli rRNA inh RFP,Calb FLC,T cruzi repl,Beta apoptosis,A1 inh
Cc1ccc(SCc2nc3ccccc3n2CC(=O)Nc2ccc(Cl)cc2)cc1,1,-1.8,.,-1,.,.,0,?,9,0.1
O=C(Cc1ccccc1)N1CCN(c2ccc([N+](=O)[O-])cc2)CC1,30,-4.7,-7,3,-13,4.0,2,6,-1,0.3
O=C(OCC(=O)N1CCN(Cc2ccccc2)CC1)c1cc(Cl)ccc1[N+](=O)[O-],-11,-1.5,4,-6,3,3.8,.,.,5,-0.1
CN(C)S(=O)(=O)c1ccc(Cl)c(NC(=O)COC(=O)/C=C/c2ccc(S(=O)(=O)N3CCOCC3)cc2)c1,-2,0.5,10,-5,9,0.5,-26,-7,.,0.8
CC1CCCCC12NC(=O)N(CC(=O)Nc1ccc3[nH]c(=O)[nH]c3c1)C2=O (centres undefined),-20,-1.3,3,0,9,-1.7,-2,-5,-4,-0.6
COCCNc1c([N+](=O)[O-])c(=O)n(-c2ccccc2)c2ccccc12,0,1.4,.,-5,.,.,6,5,2,0.5
Cc1ccc(NC(=O)COC(=O)C2=NN(c3ccccc3)C(=O)CC2)c(Br)c1,2,-2.9,0,-1,-8,-1.8,.,.,-10,-0.1
NC(=S)Cc1nc(-c2ccccc2)cs1,5,-0.4,.,4,.,.,-5,8,.,-0.4
CCn1c(C)nc2cc(C(=O)NNS(=O)(=O)c3cc(Br)ccc3Br)ccc21,20,2.7,-20,1,-24,-1.6,8,-14,1,0.5
CCOc1ncccc1C(=O)OCc1nnc(-c2ccccc2)o1,-10,-2.3,.,0,.,.,.,.,3,-0.3
Cc1cc(Cn2nc(-c3ccccc3)cc2C(=O)NCC2CC2)on1,12,1.5,2,5,-2,-2.0,3,-19,-7,-0.7
COc1ccc(C(=O)Nc2ccc(Nc3ccccc3)cc2)cc1Br,-12,0.4,-3,3,5,3.2,-4,38,8,0.1
CN(CC(=O)Nc1ccc(F)cc1)C(=O)C1CCCC1,21,3.4,4,0,10,2.2,.,.,-2,1.2

Bioassay records as filed in PubChem.

Some of the compounds tested, so the mix of outcomes need not match the whole.
